# Screening data from PubChem.
# NPYLR7 ag – activates Aedes aegypti NPYLR7 receptor; HEK293T NPYLR7/Galpha15, GCaMP6s calcium fluorescence; activation, % at 10 µM; actives 0.15% (n = 270,000); AID 1259423; in the data active = activation above about 40%;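 note: 0% = vehicle and 100% = reference agonist at the receptor; some compounds past the cut are filed as inactive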
# NPYLR7 ag max-min – second read-out of NPYLR7 ag, no call of its own (marks repeat the call); activation, %; measured here: Max-Min RFU normalised activation; some inactives read as strong as hits;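 span of the calcium signal over five minutes; 0% = vehicle and 100% = native peptide agonist; compound fluorescence can raise it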
# Numbers without * were called inactive.
smiles | NPYLR7 ag max-min | NPYLR7 ag
OCC1CCN(Cc2cc3n(n2)CCCNC3)CC1 | -2 | 0
COc1ccc(C2SCC(=O)N2CCN2CCN(C(=O)NC(C)C)CC2)cc1OC (stereo not drawn) | 21 | 24
CCCN(CCC(=O)NCc1ccco1)c1nc(-c2cccc(Br)c2)nc2ccccc12 | 17 | 23
O=C1CCC(=O)N1OCCOc1cccc(Oc2ccccc2)c1 | 12 | 13
COc1cccc(CC(=O)N2C[C@H](O)[C@@H]3C[C@@H]2Cc2c3n(C)c3ccccc23)c1 | 3 | -5
COc1ccccc1NC(=O)C1CC(=O)N(N(C)c2ccccc2)C1 (stereo not drawn) | -12 | -4
O=C(CN1C(=O)NC2(CCCCCC2)C1=O)c1ccc2ccccc2c1 | 1 | 5
O=C(CSc1ncnc2nc(N3CCc4ccccc4C3)sc12)NC1CCCCC1 | -8 | -5
COc1ccc(CCOc2nc(-c3cccs3)n(-c3ccc(NC(=O)C4CCC4)cc3)n2)cc1 | 13 | 7
O=C(NCCn1nc(-c2cccnc2)ccc1=O)C1CCCCC1 | 1 | 7
COCCNc1ncnc2ccc(Br)cc12 | 2 | 8
Cc1ccc(-c2nnc(NC(=O)CSc3nnc(N)s3)s2)cc1 | 6 | 2
COc1cc2c(cc1OC)CN(C(=O)c1sc3nc4c(cc3c1N)CN(C)CC4)CC2 | -14 | -13
Cn1c(=O)n(CCC(=O)NCCSCc2ccccc2C#N)c2ccccc21 | -3 | -3
Cc1c(C)n2c3c(=O)n(C)c(=O)n(C)c3nc2n1CCN1CCCCC1 | 10 | 10
CC(C)C(=O)N1CCSC12C(=O)N(Cc1ccc(F)c(F)c1)c1ccccc12 (stereo not drawn) | 17 | 12
CC(C)n1ccnc1CN1CCOc2c(O)cc(-c3cccc(Cl)c3)cc2C1 | 10 | 23
O=C(c1cccc(F)c1)N(Cc1cccnc1)Cc1nccn1Cc1cccc(C(F)(F)F)c1 | 25 | 12
Cc1c(C)c2c(c(C)c1O)CCC(C)(C(=O)N1CCCC(O)C1)O2 (stereo not drawn) | -4 | 1
Cc1cccn2c(=O)c3cc(C(=O)N4CCN(C)CC4)n(C)c3nc12 | 11 | 7
CCc1c(C)nc(-n2nc(C)cc2C)n(CC(=O)Nc2ccc(C(N)=O)cc2)c1=O | -1 | 2
O=C(c1cn2ccccc2n1)N(Cc1ccccc1)C1CCCCC1 | 209 | -4
CC(=O)NCC(=O)N1CCN(Cc2ccc(-c3noc(-c4ccccc4)n3)cc2)CC1 | -12 | -6
Cc1cc(C)n(CCN(C)C(=O)CCc2nnc(-c3ccc(C)s3)o2)n1 | 0 | 5

# By substructure: the compounds so far with two or more sulfur atoms.
smiles | NPYLR7 ag max-min | NPYLR7 ag
O=C(CSc1ncnc2nc(N3CCc4ccccc4C3)sc12)NC1CCCCC1 | -8 | -5
Cc1ccc(-c2nnc(NC(=O)CSc3nnc(N)s3)s2)cc1 | 6 | 2

# Remaining list, next part
smiles | NPYLR7 ag max-min | NPYLR7 ag
CNc1ccc2ncc(-c3ccc(OC)nc3)n2n1 | -4 | -1
COc1ccc(-c2c(C)noc2-c2ccc(O)cc2O)cc1OC | -4 | 3
Cc1[nH]n(-c2ccc([N+](=O)[O-])cc2)c(=O)c1N=Nc1ccc2ccccc2c1 | -29 | -28
Cc1ccccc1CC(=O)N1CC=C(c2c[nH]c3ncccc23)CC1 | -5 | -7
O=C(Nc1ccc(-c2onc3c2CCc2ccccc2-3)cc1)c1cc(C(F)(F)F)ccc1C(F)(F)F | -2 | 11
CCNC(=O)c1cn(C(C)CC)cc(C(=O)NCCc2c[nH]c3ccccc23)c1=O (stereo not drawn) | 0 | 7
COCCN(C)c1ncc(Br)cn1 | -7 | -1
O=C(NC(C(=O)N1CCOCC1)C1CCN(C(=O)C2CCCC2)CC1)c1ccc(F)cc1 (stereo not drawn) | 6 | -4
Cc1ccc(P(C=C2N(C)c3ccccc3C2(C)C)(=Nc2ccc(S(N)(=O)=O)cc2)N(C)C)o1 (stereo not drawn) | -9 | -8
COCCn1c(C(=O)Nc2ccc3c(c2)OCCO3)cc2c(=O)n(C)c(=O)n(C)c21 | -1 | -2
O=C(c1cccs1)N1CCN(c2nc(-c3ccc(F)cc3)nc3cc(Cl)ccc23)CC1 | 13 | 3
O=C(NCc1cnn2ccccc12)C1(c2ccccc2)CCCCC1 | -8 | -5
Cc1cccn2c(=O)nc(SCC(=O)NC3CCCC3)nc12 | -3 | 1
O=C(NCCCn1ccnc1)C1CC1c1ccc2ccccc2c1 (stereo not drawn) | -4 | -2
COc1ccc(Cc2nnc(SCC(=O)Nc3ccc(C)cc3)[nH]c2=O)cc1 | -6 | -7
Cc1ccc2nc(-c3ccc(F)cc3)c(NC(C)(C)C)n2c1 | 1 | 0
Nc1nc(SCC(=O)N2CCc3ccccc32)[nH]c(=O)c1NC(=O)c1ccc(Cl)cc1 | -3 | -3
Fc1cnc(N2C[C@@H]3[C@H](C2)[C@H]2CC[C@@H]3O2)nc1N1CCOCC1 | 6 | 7
CC(=O)Nc1ccc(S(=O)(=O)NCCNc2cc(-n3nc(C)cc3C)nc(C)n2)cc1 | -13 | -7
CCOC(=O)CNc1c(-c2ccccc2OC)nc2cc(C)ccn12 | 41 | 26
O=C(c1cc(=O)n(-c2ccccc2)[nH]1)N1CCCC(c2ccn[nH]2)C1 (stereo not drawn) | 5 | 2
COc1ccccc1CN(Cc1ccco1)CC(O)COc1ccc(Cl)cc1 (stereo not drawn) | 20 | 19
COCCCN1C(=O)c2[nH]nc(-c3cc(C)c(C)cc3O)c2C1c1cccc(Br)c1 (stereo not drawn) | 17 | 0
CCCNC(=O)Cn1nc2c(c1NC(=O)C1CCN(S(C)(=O)=O)CC1)CSC2 | 5 | 8
CCc1ccc(NC(=O)c2ccc3c(=O)n(CC)c(=S)[nH]c3c2)cc1 | -6 | -4
COc1ccc2nc(N3CCN(C(=O)C4CCCN4S(=O)(=O)c4cccs4)CC3)sc2c1 (stereo not drawn) | -1 | -1
CC(C)C(=O)Nc1cccnc1-c1ccc2c(c1)OCCO2 | 6 | 16
COc1ccc(CC(=O)Nc2c3c(nn2-c2ccc(F)cc2)CS(=O)(=O)C3)cc1OC | -2 | 0
Cc1ccccc1-n1c(-c2ccc(Cl)cc2)cc(C(=O)NCCN2CCCCC2)c1C | -14 | -8
O=C(NC(C1CC1)C1CC1)c1cncc(Br)c1 | 5 | 12
CC(C)Oc1ccccc1C1Nc2ccccc2N=C2CC(c3ccc(Cl)cc3)CC(=O)C21 (stereo not drawn) | -7 | -7
Cc1cc(Nc2ccccc2)n2ncc(-c3ccccc3)c2n1 | -6 | -2
CCN1CCC(C(=O)NC(c2ccc(OC)cc2)c2ccccn2)CC1 (stereo not drawn) | -9 | -9
COC(=O)C1=C(O)/C(=C\c2ccccc2O)SC1=Nc1ccccc1 | 26 | 20
CCS(=O)(=O)N1CCN(C(=O)c2cc(CC(C)C)[nH]n2)CC1 | 6 | 8
O=C(Cc1ccc2c(c1)CCCC2)Nc1ccc(N2CCOCC2)nc1 | 8 | 9
C=CCNC(=S)Nc1ccccn1 | -14 | -10
O=C(Cn1c(-c2ccccn2)nc2ccccc21)Nc1nc2ccccc2s1 | -11 | -6
O=C(NCC(c1ccco1)N1CCCC1)c1cc(C2CC2)[nH]n1 (stereo not drawn) | 10 | 15
COC(=O)Cc1cc(=O)[nH]c(N=C(N)Nc2cc(Cl)ccc2OC)n1 | -12 | -8
Cc1ccc(S(=O)(=O)NCC2CCN(C(C)C)CC2)s1 | -13 | -6
CC1(C)OCC(CNC(=O)c2cccnc2Oc2ccc(Cl)cc2)O1 (stereo not drawn) | -17 | -9
CCCCN1CCN(CC2CCNCC2)CC1=O | 1 | 3
CCC1CN(Cc2nc(-c3ccc(C(=O)OC)cc3)no2)CCN1C(C)C (stereo not drawn) | 5 | 9
O=C(CSc1nc(=O)n(CC2CCCO2)c2c1CCC2)NCc1ccc2c(c1)OCO2 (stereo not drawn) | -13 | -7
Cc1cc(C)n(-c2nc3ccccc3n3nnnc23)n1 | 6 | 15
Cc1cc(C)cc(-n2nc(C(=O)NCc3ccccn3)c(=O)n(Cc3cccc(Cl)c3)c2=O)c1 | 6 | -1
COc1ccc(N=c2oc3c(OC)cccc3cc2-c2nc3ccccc3[nH]2)cc1 | 12 | 3
O=C(CSc1ccc2nc(-c3ccccc3)cn2n1)c1ccccc1 | 5 | 5
CCOCCn1c(=O)c2c(nc3n2CCN3c2ccc(C)c(C)c2)n(C)c1=O | -2 | 0
Cc1ccn2c(=O)c(NC(=O)COc3ccc(Cl)cc3Cl)c(C)nc2c1 | 2 | 4
Cc1cccc(COC2CCCN(C(=O)c3cccc(Cl)c3)C2)c1 (stereo not drawn) | 13 | 6
CC(C)C(=O)Nc1c(-c2cccs2)c(=O)c2ccccc2n1C | -1 | 0
C=CCN1CCN(c2nc(C3CC3)nc3sc4c(c23)CCCCC4)CC1 | 8 | 3
O=c1ccnc(/C=C/c2ccc(OC(F)F)cc2)[nH]1 | 0 | 2
COc1cccc(Oc2ccc3c(C4CC4)noc3n2)c1 | 0 | 4

# More compounds follow:
smiles | NPYLR7 ag max-min | NPYLR7 ag
CC(NS(=O)(=O)CCC1CCCO1)c1nc(C(C)(C)C)cs1 (stereo not drawn) | -10 | -9
O=C(c1scc2c1CCCC2)N1CCCC(Nc2ccc3c(c2)OCCO3)C1 (stereo not drawn) | -3 | 3
CCOc1ncccc1CNC(=O)c1cc(NC(C)=O)ccc1Cl | 5 | -2
Oc1ccccc1C=NN1CCN(C2c3ccccc3-c3ccccc32)CC1 | 4 | 5
CC(=O)Nc1nc(SCc2ccc(F)cc2)[nH]c(=O)c1NC(=O)c1cccs1 | -2 | -2
O=C(Cc1ccccc1F)NC1CCC(O)CC1 (stereo not drawn) | 2 | 1
O=C(Nc1cccc(-c2cccc(-c3ccc(F)cc3)n2)c1)c1c(F)c(F)c(F)c(F)c1F | 1 | 1
C=C(C)CNC(=O)c1cc(N2CCSCC2)nc2ccccc12 | -5 | 7
CC(=NNCCO)c1ccncc1 | -4 | -3
CC(C)c1nnc(CN2C[C@H]3C[C@H](O)[C@@H](O)C[C@H]3C2)o1 | 2 | 2
C=CCNC(=O)c1c(NC(=O)c2ccc(C)cc2)sc2c1CCCC2 | 0 | 2
c1ccc(Cc2nnc3sc(Cc4cccnc4)nn23)cc1 | -12 | -7
CC1=C(C(=O)N2CCOCC2)C(c2c(F)cccc2F)NC(=O)N1c1cccc(C(=O)O)c1 (stereo not drawn) | 1 | 5
COc1cccc(/C(C)=C/c2nc(CC(=O)Nc3ccccc3)no2)c1 | -2 | 3
COC(=O)c1cccc(CN(C)C(C)c2ccccn2)c1 (stereo not drawn) | -3 | 1
C=CCN1CCN(c2ccncc2S(N)(=O)=O)CC1 | 1 | 2
Cn1ncc2c1CCCC2Nc1ncc(C(F)(F)F)cc1Cl (stereo not drawn) | 3 | 5
COc1cccc(-c2cn3c(C(=O)Nc4ccccn4)csc3n2)c1 | 6 | 6
C=CCCC(O)CN(Cc1ccco1)Cc1c(-c2ccccc2)nn(C)c1Oc1ccc(F)cc1 (stereo not drawn) | 7 | 0
O=S(=O)(NCc1cccs1)c1cccc2nsnc12 | 3 | 6
COc1ccc(CNC(=O)CCc2ccc(-c3ccc(Cl)cc3)n2-c2ccc(OC)cc2)cc1 | 0 | 1
COc1cccc(-c2cc(-c3ccc(C(=O)N4CCC(Cc5ccccc5)CC4)cc3)[nH]n2)c1 | 8 | -1
O=C(Nc1cccnc1N1CCN(C(=O)NCCCc2ccccc2)CC1)c1ccc2c(c1)OCO2 | -6 | 10
COc1cccc(COC(CN2CCN(C(=O)C=C(C)C)CC2)c2ccc(Cl)cc2)c1 (stereo not drawn) | 2 | -2
CCCCCn1cc(C2CCN(S(=O)(=O)c3cccc(C(F)(F)F)c3)CC2)c2ccccc21 | 4 | 10
Fc1cccc(CN2CCN(Cc3cnc(-c4ccccc4)nc3)CC2)c1 | 5 | 10
CCC1=NS(=O)(=O)c2cc(NC(=O)c3cccc([N+](=O)[O-])c3)ccc2N1CC(C)C | -8 | -3
C/C=C\COC1CCCN(C(=O)c2ccccc2C)C1 (stereo not drawn) | 1 | -5
CCc1cccc(NC(=O)N2CCN(c3nc(C(C)C)nc4sc(C)c(C)c34)CC2)c1 | 15 | 14
Cc1c(N=CN2CCOCC2)c(=O)n(C)c(=O)n1C | -5 | 6
Cc1[nH]cnc1CN(C)CCN(C)C1CCCC1 | -5 | -4
OC(COCC(c1ccccc1)c1ccccc1)CN1CCc2ccccc2C1 (stereo not drawn) | -6 | -7
Cc1cc(C)c(NC(=O)c2nnn(Cc3ccc(Cl)cc3)c2N)c(C)c1 | 10 | 2
O=C(c1sccc1S(=O)(=O)N1CCCC1)N1CCC(O)(CO)CC1 | -11 | -7
CC(C)(C)CC(C)(C)c1ccc(OCC(=O)NNC(=O)COc2ccccc2)cc1 | -9 | -4
c1ccc(C2NC3=NCN(Cc4ccccn4)CN3c3nc4ccccc4n32)cc1 (stereo not drawn) | 1 | 2
CN(C)CCN(CCO)C1=NS(=O)(=O)c2ccccc21 | 9 | 14
O=C(/C=C/c1ccc(C(=O)NC2CC2)cc1)Nc1ccncc1 | 1 | -2
Cc1cc(C)n2cc(CN3CCc4ccccc43)nc2n1 | -2 | 2
Cn1ccn2ncc(C(=O)NC(Cn3ccnc3)c3ccccc3)c12 (stereo not drawn) | 7 | 17
OCc1ccccc1-c1ccc2nc[nH]c2c1 | 6 | 6
CC(c1ccc(-c2cc(NCCO)nc(N)n2)cc1)N1CCCC1 (stereo not drawn) | 4 | 5

# Among those listed so far, 5 contain bromine:
smiles | NPYLR7 ag max-min | NPYLR7 ag
CCCN(CCC(=O)NCc1ccco1)c1nc(-c2cccc(Br)c2)nc2ccccc12 | 17 | 23
COCCNc1ncnc2ccc(Br)cc12 | 2 | 8
COCCN(C)c1ncc(Br)cn1 | -7 | -1
COCCCN1C(=O)c2[nH]nc(-c3cc(C)c(C)cc3O)c2C1c1cccc(Br)c1 (stereo not drawn) | 17 | 0
O=C(NC(C1CC1)C1CC1)c1cncc(Br)c1 | 5 | 12

# This is a subset; count on the stated rates, not on these rows.
